Screening results (PubChem)
rRNA inh HTS – selective bacterial rRNA inhibition in E. coli. actives 1.6% (n = 350,000). GFP signal change (wild-type ribosome), % (concentration not given with the values). E. coli WT GFP vs humanized-ribosome RFP mutants, fluorescence, 24 h; hits give low values; DMSO median 0, no signal -100;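 active means significant combined selectivity score with lowered wild-type GFP, culture density cut under 30%, mutant RFP and density less affected; inactive means any of these conditions unmet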; further: one replicate is shown; some compounds called inactive have numbers as strong as hits
Beta apoptosis – blocks beta cell apoptosis | INS-1E cytokine-induced death, ATP luminescence, 48 h; percent of positive-control rescue, neutral wells zero | actives 0.8% (n = 300,000) | AID 435005 | protection from apoptosis, % (test concentration not listed);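 active means all replicates at 75% or more, or half of them and the mean; inconclusive means half reach 75% but not the mean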;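 further: 0% = cytokine-treated negative control wells and 100% = positive control rescue; higher means more ATP so stronger rescue from cytokine killing; wells of about 40 µL received 100 nL stock; the first replicate is given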
FGF22 binding – FGF22 (human) thermal shift binding; recombinant FGF22 thermal shift, SYPRO orange fluorescence; percent of sucrose octasulfate shift, DMSO zero; calls only at 9.99 µM; actives 1.5% (n = 340,000); AID 651658;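 active means melting point raised past a set limit in the mean and every replicate; inconclusive means no clear call; three in four hits are not shown here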
Target sequence (Q9HCT0 whole entry, looked up): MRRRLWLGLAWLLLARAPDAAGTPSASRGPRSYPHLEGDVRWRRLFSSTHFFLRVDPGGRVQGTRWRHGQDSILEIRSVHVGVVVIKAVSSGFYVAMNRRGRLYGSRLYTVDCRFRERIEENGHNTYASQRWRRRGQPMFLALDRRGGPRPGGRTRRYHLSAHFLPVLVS
T cruzi inh – T. cruzi replication inhibition; T. cruzi beta-gal in NIH3T3, luminescence, 90 h; inhibition, % (test concentration not listed); actives 1.4% (n = 300,000); AID 1885;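 active means mean inhibition across valid replicates above about 55%, limit read from the data; inconclusive means mean below that limit but half or more replicates reach it; inactive means mean below it, under half of replicates reach it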;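 further: signal also drops with host cell toxicity which is not excluded here; 0% = plate median of DMSO wells and 100% = zero luminescence signal; higher percent means less beta-gal luminescence so fewer parasites; stock transfer was 50 nL into about 50 µL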
MLL AF4-AF9 inh – blocks AF4 peptide binding to human AF9; AlphaScreen, biotin-AF4 peptide binding to FLAG-AF9; actives 0.47% (n = 350,000); inhibition, % at 10 µM;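 active means every replicate reaching a set inhibition limit, whatever the replicate mean, cut at about 25% in these data; inconclusive means mean inhibition reaches that limit but some replicates miss it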;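 further: 0% = plate neutral control median and 100% = total signal loss; the record names both 10 and 1 µM as test concentration; the first replicate is given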
Target sequence (P42568 whole entry, looked up): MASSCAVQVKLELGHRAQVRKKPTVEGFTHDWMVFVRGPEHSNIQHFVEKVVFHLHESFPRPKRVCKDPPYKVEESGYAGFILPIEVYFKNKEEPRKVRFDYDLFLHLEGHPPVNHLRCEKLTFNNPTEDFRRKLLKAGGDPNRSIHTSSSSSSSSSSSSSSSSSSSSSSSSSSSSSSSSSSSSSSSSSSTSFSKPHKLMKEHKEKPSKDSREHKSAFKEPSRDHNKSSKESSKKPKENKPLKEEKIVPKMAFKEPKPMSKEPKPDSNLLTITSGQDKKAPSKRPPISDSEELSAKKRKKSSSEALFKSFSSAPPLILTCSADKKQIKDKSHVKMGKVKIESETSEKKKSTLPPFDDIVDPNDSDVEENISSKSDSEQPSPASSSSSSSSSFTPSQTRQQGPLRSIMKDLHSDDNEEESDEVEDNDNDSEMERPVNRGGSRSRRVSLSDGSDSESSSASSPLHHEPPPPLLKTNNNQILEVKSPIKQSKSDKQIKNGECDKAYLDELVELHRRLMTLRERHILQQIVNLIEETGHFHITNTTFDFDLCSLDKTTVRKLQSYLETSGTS
Calb FLC – affects C. albicans growth with fluconazole; C. albicans CaCi-2 (fluconazole-resistant clinical isolate) + fluconazole, Alamar Blue growth, 48 h; growth inhibition, % (concentration not given with the values); actives 0.57% (n = 300,000); AID 1979;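 active means most replicates above 75%; inconclusive means exactly half above 75%; inactive means most below 75%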;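 further: all wells also contain fluconazole at 8 µg/ml as a sub-toxic cotreatment; 0% = median of DMSO wells and 100% = median of geldanamycin control wells; wells of about 8 µL received 7.5 nL stock; the first replicate is given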
RanGTP-Imp inh – inhibitors of RanGTP-importin-beta interaction, primary screen, biochemical, FRET, CFP-Ran, YFP-importin-beta, homogeneous | AID 2216 | cell-free CFP-Ran/YFP-importin-beta FRET ratio | actives 1.1% (n = 300,000) | inhibition, % (no concentration beside the values);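 active means most replicates above 15%; inconclusive means exactly half above 15%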;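 further: 0% = DMSO wells and 100% = Ran loaded with GDP instead of GTP; wells of about 40 µL received 100 nL stock; the first replicate is given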
ALR H2O2 inh – blocks human ALR sulfhydryl oxidase activity | purified ALR, DTT oxidation, H2O2 HRP-luminol luminescence | inhibition, % (test concentration not listed) | actives 3.8% (n = 290,000);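 active means mean and each replicate at 75% or more; inconclusive means only one of the two met; inactive means neither met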;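 further: stock transfer was 7.5 nL into about 7.5 µL; 0% = neutral wells and 100% = wells with inactivated enzyme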
Target sequence (P55789 whole entry, looked up): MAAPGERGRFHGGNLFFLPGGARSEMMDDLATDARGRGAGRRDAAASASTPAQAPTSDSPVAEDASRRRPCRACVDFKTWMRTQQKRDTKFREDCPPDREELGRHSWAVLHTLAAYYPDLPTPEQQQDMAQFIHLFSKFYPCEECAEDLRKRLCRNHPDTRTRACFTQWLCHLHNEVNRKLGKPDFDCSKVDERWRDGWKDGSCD
rRNA inh HTS OD600 – second read-out of rRNA inh HTS, no call of its own (marks repeat the call); OD600 change, %; measured here: OD600 growth;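 optical density of the mix in the first replicate; 0 = DMSO median and -100 = no signal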
rRNA inh HTS RFP – second read-out of rRNA inh HTS, no call of its own (marks repeat the call); RFP signal change, %; measured here: RFP humanized mutant strains;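 first replicate; 0 = DMSO median and -100 = no signal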
Active calls of the source: *; i = inactive; ? = inconclusive; · = no result given; + = active, no number; & = joins results of further samples. Not all compounds are listed; rates above refer to the full screens.

structure	rRNA inh HTS	rRNA inh HTS OD600	rRNA inh HTS RFP	Beta apoptosis	FGF22 binding	T cruzi inh	MLL AF4-AF9 inh	Calb FLC	RanGTP-Imp inh	ALR H2O2 inh
O=C(COc1cc(F)ccc1[N+](=O)[O-])NCCN1C(=O)CSC1=O	4	-2	5.7	0	i	·	8.9	·	·	17
COC(=O)C1=C(C)N(Cc2ccccc2)C(=O)N[C@H]1c1cccc(C(F)(F)F)c1	·	·	·	-6	·	-4	·	14	?	-12
CC(C)(C)OC(=O)NCCCC[C@H](NC(=O)c1[nH]cnc1C(=O)Nc1ccc(CNC(=O)OC(C)(C)C)cc1)C(=O)OC(C)(C)C	7	-9	-1.2	27	·	·	-1.6	·	·	-2
COc1cccc(N(CC(=O)NCc2cccnc2)S(C)(=O)=O)c1	·	·	·	-13	·	1	·	-1	2.2	-16
COc1ccc2c(c1)OC[C@H]1[C@H]2N2C(=O)CN(C)C(=O)[C@@]2(C)[C@H]1c1ccccc1	0	1	-3.4	-3	i	·	1.2	·	·	-9
CSc1ccc(/C=C(\C(=O)O)c2ccc(S(=O)(=O)N3CCCCC3)s2)cc1	-41	-61	-14	-7	i	-11	-19	32	45*	90*
COCCNC(=S)N(CCc1c(C)[nH]c2ccccc12)Cc1cccnc1	-2	-4	2.7	-1	i	37	2.6	·	2.4	97*
Cc1ccc2nc(SCC(=O)NC3CCS(=O)(=O)C3)[nH]c2c1 (stereo not drawn)	0	7	-1.2	-1	i	·	-0.6	·	·	·
O=C(Nc1ccc(NC(=S)NC(=O)c2cccs2)cc1)c1ccco1	6	-6	0.1	0	i	-7	0.9	-16	3.6	3
COc1ccc(N=C2SC(C(=O)Nc3ccc(C(=O)O)cc3)CC(=O)N2Cc2cccs2)cc1 (stereo not drawn)	-10	-13	5.9	3	i	-9	8.0	1	-0.8	40
O=C(CNC(=O)c1ccccc1Br)NCCSc1ccc(Br)cc1	-12	-14	-0.6	·	i	-3	-1.1	-8	-2.0	-4
CCOC(=O)c1c(C)[nH]c(C)c1S(=O)(=O)N(C)CC(=O)Nc1ccc(C)cn1	-3	0	-0.5	-1	i	3	0.3	0	-1.7	-5
CC(C)Oc1ccc(C(=O)Nc2nnc(SCC(=O)N3CCOCC3)s2)cc1	·	·	·	2	·	9	·	1	?	·
C/C(CC(=O)Nc1ccc(N(C)C)cc1)=N\NC(=O)c1ccc(F)cc1	-10	-3	-2.7	·	i	-2	4.9	7	1.0	74
COc1ccc(CNC(=O)[C@@H]2CCCN2C(=O)[C@@H]2Cc3ccccc3CN2C(=O)OC(C)(C)C)cc1	-5	-7	2.5	-9	i	-3	-1.7	3	-1.5	-3
Cc1ccccc1N(C)C(=O)C1CCCN(c2ncnc3c2nc2n3CCCCC2)C1 (stereo not drawn)	-4	-6	-4.8	7	i	10	-3.1	17	1.1	-3
Cc1ccc(CNC(=O)CCC(=O)N2CC(C)Sc3ccccc32)cc1 (stereo not drawn)	-22	-36	-3.4	-5	i	17	1.7	-5	0.4	-16
CC1(C)Cc2c(cnn2-c2ccc(F)cc2)C(NC(=O)CCN2CCCCO2)C1 (stereo not drawn)	4	4	0.2	-9	i	-8	0.0	-3	-1.5	-6
COc1cccc(NC(=O)c2ccc3c(c2)C(=O)N(CC2CCCO2)C3=O)c1 (stereo not drawn)	-2	1	2.1	-1	i	1	-0.6	12	9.7	-3
CCN(CC)S(=O)(=O)c1cccc(N=Nc2sc(N)nc2C)c1	0	2	9.1	-3	i	18	6.6	-3	-4.5	16
CC(NC(=O)Nc1cccc([N+](=O)[O-])c1)c1ccc2c(c1)OCO2 (stereo not drawn)	-35*	-26*	-5.1*	-13	i	2	6.9	-1	-0.6	-3
O=S(=O)(NCC1CC1)c1cccc(S(=O)(=O)N2CCCC2)c1	·	·	·	1	·	-6	·	-5	-0.2	·
COc1ccc(NC2CCCN(C(=O)C3=NN(C)C(=O)CC3)C2)cc1OC (stereo not drawn)	14	12	1.2	-3	i	-6	-1.9	10	-0.6	98*
CCc1nc2nc(C)c(NS(=O)(=O)c3ccc(F)cc3)c(=O)n2[nH]1	-1	9	-1.0	-7	·	-3	1.1	-2	3.2	·
O=[N+]([O-])c1ccccc1S(=O)(=O)N(CC(O)CN1CCCCC1)c1ccccc1 (stereo not drawn)	1	4	0.6	-5	i	8	1.9	-10	6.2	-6
O=C(Nc1cccc(C(F)(F)F)c1)OCc1ccncc1	-4	-4	-2.4	0	i	12	-1.6	-2	0.5	-4
CCOC(=O)c1ccccc1NC(=O)Cn1cnc2c(cnn2C(C)(C)C)c1=O	·	·	·	4	·	5	·	3	4.7	-6
CC(Oc1ccccc1)C(=O)Nc1cccc(NC(=O)c2ccco2)c1 (stereo not drawn)	-12	1	7.1	-5	i	-1	-5.0	5	2.8	9
CC1CCN(Cc2nc(-c3ccccc3)no2)CC1	·	·	·	-2	·	-3	·	-9	0.0	0
CSc1ccc(S(=O)(=O)NCc2ccccc2C)cc1	-33	-58	-3.1	-5	i	9	-1.9	-12	1.5	-9
COc1cc(/C=C/c2cc(C(=O)O)c3ccccc3n2)cc(OC)c1O	9	26	-3.3	8	i	-17	0.1	-1	0.6	99*
CCc1ccccc1NC(=S)NC1CC2CCC(C1)N2Cc1ccc(F)cc1 (stereo not drawn)	6	7	-5.0	3	+	3	5.8	?	3.5	1
O=C(C1CCC(=O)N(C2CC2)C1)N1CCN(c2ccccc2Cl)CC1 (stereo not drawn)	10	23	0.8	-7	i	-13	1.4	-5	0.8	-1
Cc1cc(NC(=O)CSc2nc3c(c(=O)n(C)c(=O)n3C)n2C(C)C)no1	-1	-2	-3.1	-5	i	-10	3.3	-4	-2.3	-5
CS(=O)(=O)c1ccc2nc(NC(=O)c3cc4ccccc4o3)sc2c1	·	·	·	6	·	-19	·	?	5.0	32
COc1cccc(CNC(=O)C2CCN(S(=O)(=O)c3cccc4cccnc34)CC2)c1	-3	-2	2.6	-7	i	-6	1.3	-2	-1.2	53
Cc1cc2oc(=O)cc(CN3CCN(S(=O)(=O)/C=C/c4ccccc4)CC3)c2cc1C	·	·	·	16	·	66*	·	3	-0.9	-6
CC(N)C12CC3CC(C1)CC(C(C)N)(C3)C2 (stereo not drawn)	·	·	·	-9	·	-4	·	3	3.2	1
COc1ccc(NC(=O)CSc2nc(N)c(-c3ccccc3)c(=O)[nH]2)cc1	3	6	-1.0	-2	i	-10	-0.5	-5	5.9	-63
C=CCSc1nc2c(c(=O)[nH]1)C(c1ccccc1)C(C#N)=C(N)O2 (stereo not drawn)	1	1	6.0	-6	i	-5	12	6	0.7	11
CCOC(=O)CC1C(=O)NCCN1C(=O)COc1ccc(C(C)(C)C)cc1 (stereo not drawn)	5	-1	6.1	-6	i	3	-1.9	1	0.3	0
CC1=NN(c2ccccc2)C(=O)/C1=C\C=C1\N(C)c2ccccc2C1(C)C	·	·	·	19	·	26	·	-1	-26	29
Cc1c(Cl)cccc1-n1c(SCC(=O)N2CCC(C(=O)O)CC2)nc2ccccc2c1=O	0	-2	2.1	·	i	-10	0.0	10	0.8	1
CC1CCCCN1C(=O)COc1ccccc1F (stereo not drawn)	15	8	2.1	-2	i	-2	-0.3	0	-1.6	3
CCOC(=O)N1CCC(NC(=O)c2ccc3c(c2)N=C(C)c2ccccc2S3)CC1	-17	-10	5.1	·	i	11	2.0	8	-0.1	-1
Cc1ccc(-c2nnc(Nc3ccccc3)c3ccccc23)cc1S(=O)(=O)NCC1CCCO1 (stereo not drawn)	·	·	·	12	·	25	·	61*	?	-22
COc1ccc(NC(=O)COC(=O)Cn2cnc3ccccc32)cc1	3	0	0.7	-3	i	·	-0.3	·	·	10
CCOC(=O)N1CCN(C(=O)/C(=C\c2ccc(SC)cc2)NC(=O)c2ccccc2)CC1	11	27	3.6	1	i	-2	3.2	-10	0.6	-7
CCCOC(=O)C1=C(C)NC2=C(C(=O)CCC2)C1c1cccc(OC)c1OC (stereo not drawn)	·	·	·	-6	·	-17	·	-1	0.5	-7
Cc1ccnc(NS(=O)(=O)c2ccc(NS(=O)(=O)Cc3ccccc3)cc2)n1	·	·	·	-5	·	-5	·	4	-2.0	-20

(more compounds)
structure	rRNA inh HTS	rRNA inh HTS OD600	rRNA inh HTS RFP	Beta apoptosis	FGF22 binding	T cruzi inh	MLL AF4-AF9 inh	Calb FLC	RanGTP-Imp inh	ALR H2O2 inh
CCc1ccc(NC2=CC(=O)CC(c3ccco3)C2)cc1 (stereo not drawn)	·	·	·	-1	·	7	·	25	0.0	-18
COc1ccccc1N(C(=O)c1csnn1)C(C(=O)NC1CCCC1)c1ccccc1 (stereo not drawn)	5	3	-1.0	-6	i	5	1.8	7	4.1	-1
COc1ccc(C(=O)c2cn[nH]c2-c2cc(Cl)ccc2O)cc1	·	·	·	·	·	2	·	?	3.4	6
COc1ccccc1Nc1nc(N)nc(-c2cc3ccccc3o2)n1	·	·	·	-1	·	15	·	39	-3.4	-1
C[C@H](CO)N1C[C@H](C)[C@@H](CN(C)C(=O)Nc2ccccc2)Oc2c(NS(=O)(=O)c3ccc(F)cc3)cccc2C1=O	0&5	4&8	0.9&-2.2	-3	i	·	-2.8&-5.1	·	·	-3
Cc1ccc(NC(=O)Cc2nn(C)c(=O)c3ccccc23)cc1F	·	·	·	86*	·	-36	·	-4	-1.8	-9
O=C(C1CC1)N1CCc2cc(S(=O)(=O)NCc3ccccc3)ccc21	-2	4	1.3	-4	i	-4	-2.0	?	-4.6	-8
CCC(C)(C)C1CCc2c(sc(N)c2C(N)=O)C1 (stereo not drawn)	3	6	3.9	6	i	15	-3.3	29	-4.7	?
O=C(O)c1nn(Cc2ncc(-c3cccc(Cl)c3)o2)c(=O)c2ccccc12	-4	-10	4.1	-4	i	-4	0.6	0	-2.6	-13
O=C(Nc1cccc(Cl)c1)Nc1ccccc1C(=O)NCc1ccco1	·	·	·	-3	·	-32	·	3	-0.4	16
Cc1ccc(OCc2nnc(SCC(=O)Nc3cccc4ccccc34)n2-c2ccccc2)cc1	·	·	·	7	·	16	·	-7	7.0	-4
CCCCCc1nnc(NC(=O)c2ccc3nc[nH]c3c2)s1	1	6	5.2	-1	i	·	-2.1	·	·	-19
CC(NC(=O)c1ccc(F)cc1Cl)C1CC2CCC1C2 (stereo not drawn)	-3	-1	-0.9	-4	i	-5	1.3	-5	-1.5	-3
C=C(C)c1cccc(C(C)(C)NC(=O)N2CCCC2)c1	·	·	·	-2	·	4	·	-27	-0.4	-5
Cc1ccc(S(=O)(=O)N(CC(O)CN2CCCCC2)c2ccccc2)cc1 (stereo not drawn)	4	8	1.5	·	i	3	1.9	-13	-1.1	-6
CC(C)(C)NC(=O)C1CC(=O)OC1(C)C (stereo not drawn)	·	·	·	9	·	-8	·	12	5.9	-1
